Vaccinia pol inh = vaccinia E9 polymerase processive synthesis inhibition; in vitro processive DNA synthesis, absorbance read-out; hits give low values; some inactives read as strong as hits; AID 493162; actives 0.94% (n = 46,000); normalized absorbance, % (concentration not given with the values);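 active = replicate mean up to 90% and picked by the depositor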;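 also: 100% = median of the test wells of a plate; 100 nL library stock went into each well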
Numbers without * were called inactive. Not all compounds are listed; the hit share may differ from the screen's.

SMILES	Vaccinia pol inh
O=C(NCc1ccccc1)C1CC1(c1ccccc1)c1ccccc1 (stereo not drawn)	97
O=C(Cn1c(=O)c2sccc2n(Cc2cccc(Cl)c2)c1=O)NCc1ccco1	100
CCOC(=O)c1c(O)c(Cl)c(C)[nH]c1=O	100
COc1cccc(C2CC(C(F)(F)F)n3ncc(C(=O)O)c3N2)c1 (stereo not drawn)	101
Cc1ccccc1NC1=NC2(CCCCC2)N=C(N)N1	100
COC(=O)CNc1ccccc1C(=O)O	103
CCOC(=O)C1=C(O)/C(=C\c2ccccc2)N=C1C	102
Cc1ccc(CC2C(=O)N(c3cccc(C(F)(F)F)c3)C(=O)C2C)cc1 (stereo not drawn)	100
CCOc1ccc(CCNS(=O)(=O)c2ccc3c(c2)CCN3C(=O)C2CC2)cc1OCC	104
O=C(CC12CC3CC(CC(Br)(C3)C1)C2)NC1CCCC1	100
CC(=O)N=c1nc(-c2ccccc2)n(-c2ccccc2)s1	100
CC(=O)O[C@@H]1CC2C(C)(C)C(=O)C=C[C@]2(C)C2CC[C@@]3(C)[C@H](c4ccoc4)OC(=O)[C@H]4O[C@]43[C@@]21C (stereo partly drawn)	100
CSc1ccc(/C=N/n2c(=O)oc3ccccc3c2=O)cc1	99
O=C(COC(=O)Cc1ccsc1)Nc1ccc(Cl)c(C(F)(F)F)c1	98
COc1ccc(C=C2C(=O)NC(=S)NC2=O)cc1	100
Cc1cccn2cc(-c3cccc(NC(=O)CCC(=O)O)c3)nc12	99
CC(C)c1cc(NCCN(C)C)n2c(nc3ccccc32)c1C#N	84
O=C(COc1ccccc1)NCCc1nc2ccccc2n1Cc1ccccc1	104
Cc1cc(N2CCC(C)CC2)nc2ccc(NC(=O)c3ccc4c(c3)OCO4)cc12	103
CCSc1nnc(-c2c[nH]c3ccccc23)n1-c1ccc(OC)cc1	102
COc1ccc(C=NC23CC4CC(CC(C4)C2)C3)cc1	101
O=C(c1cc2c(s1)CCCC2)N1CCN(c2ccccc2)CC1	104
CC1CCCN(CC(O)COCCC23CC4CC(CC(C4)C2)C3)C1 (stereo not drawn)	99
NC(=O)COC(=O)/C=C/c1cccs1	109
O=S(=O)(c1cc(Cl)sc1Cl)N1CCSCC1	115

Following part:
SMILES	Vaccinia pol inh
Cc1ccc(-n2cnnc2)cc1	88
O=C(CSc1nc2ccccc2[nH]1)Nc1ccc(OC(F)(F)F)cc1	100
Cc1noc(C)c1S(=O)(=O)NC1CCCCCC1	104
Cc1cc(NC(=O)C2CCCCC2C(=O)O)no1 (stereo not drawn)	98
O=c1oc2ccccc2c(O)c1NS(=O)(=O)c1ccc2c(c1)CCCC2	103
CCOC(=O)CC(=O)Nc1c(NC)c2ccccc2oc1=O	110
CC(C)C(=O)NCc1cccnc1	107
O=c1c2sccc2nc(SCc2cc(=O)n3cc(Br)ccc3n2)n1C1CC1	103
O=C1CCCC/C1=C/Nc1cccc(N/C=C2/CCCCC2=O)c1	100
CC(=O)Oc1cccc(/C=C2\N=C(c3ccco3)OC2=O)c1	98
CCOC(=O)c1c(CC(C)C)csc1NC(=O)c1ccccc1OC(C)=O	100
CC(C)n1cc(/C(N)=N/O)c(=O)n(Cc2ccccc2)c1=O	109
O=C(Nc1nccc2ccccc12)c1cccs1	87
Cc1ccsc1C=Nc1c(F)c(F)c(F)c(F)c1F	105
Cc1ccccc1NC(=O)CSc1ccccc1C(=O)O	101
Cc1onc(-c2ccccc2)c1C(=O)N(C)CCc1ccccn1	100
O=C(NCCN=C1NS(=O)(=O)c2ccccc21)c1ccncc1	102
CC1CCCCC1N(C)C1CCN(CCCNC(=O)/C=C/c2ccccc2Cl)CC1 (stereo not drawn)	102
CCc1c(C)n([O-])c2c([n+]1=O)CCCCC2	100
CCOc1ccc(-c2nc3c(c(C)nn3-c3ccccc3)c3cc(OC)c(OC)cc23)cc1	100
CCOC(=O)c1c(-c2cccs2)csc1/N=C/c1c(O)n(C)c2ccccc12	99
CC(C(=O)NCCN1CCOCC1)(c1ccccc1)c1ccccc1	104
CCc1ccc(C(=O)Oc2ccc(C#N)cc2)cc1	100
COc1ccc(C(=O)CNc2cc(C)ccc2C)c(F)c1	116
NC(=O)/C(=C/c1ccc(Cl)cc1)NC(=O)c1ccccc1	100

Next part:
SMILES	Vaccinia pol inh
CN1CCC(OC(=O)Cc2ccccc2)CC1	99
CCn1cc(C(=O)N2CC(C)CC(C)C2)c(=O)c2cc(S(=O)(=O)N3CC(C)CC(C)C3)ccc21 (stereo not drawn)	98
CCSC1=NCCN1S(=O)(=O)c1ccccc1	100
Oc1ccc(C=Nc2ccc(N=Cc3ccc(O)cc3)c(Cl)c2)cc1	102
COC(=O)Nc1c(C)nc2n(C)c3ccccc3n12	100
CN(c1cc(C(F)(F)F)ccn1)N1C(=O)c2ccccc2C1=O	98
O=C(O)C1C2C=CC(C2)C1C(=O)NCc1ccncc1 (stereo not drawn)	100
O=C(/C=C/c1cn(-c2ccccc2)nc1-c1cccs1)NCc1ccccc1	101
O/N=C/c1cccn1-c1ncc(C(F)(F)F)cc1Cl	110
CN(C)CCCNC(=O)c1cc(Br)ccc1O	113
Cc1ccc(CN2CCN(CC(=O)NCc3ccc4c(c3)OCO4)C2=O)cc1	103
O=C(CCCCl)NCc1cccnc1	113
COc1cccc(C2C(C(=O)c3ccccc3)=C(C)Nc3nc4ccccc4n32)c1 (stereo not drawn)	100
Cc1ccc(C(c2c(O)[nH]c(=S)[nH]c2=O)N2CCCCC2)cc1 (stereo not drawn)	91
Cn1cccc1Cc1nnc(SCC(=O)Nc2ccccc2C(F)(F)F)n1-c1ccc(F)cc1	82
COc1ccc(S(=O)(=O)N(CCC(=O)O)Cc2ccco2)cc1OC	106
CC(C)=CC(=O)Nc1ccc(Cl)cc1	100
O=C(CCc1cn(Cc2ccccc2Cl)c2ccccc12)N1CCc2ccccc21	101
CCOC(=O)C1=C(C)N(C(=O)Oc2ccccc2)C(SC)=NC1c1ccccc1 (stereo not drawn)	96
CNc1ccc2nnc(CCNC(=O)c3ccccc3)n2n1	104
Cc1cc(C)n2nc(SCCC(=O)NCc3c(F)cc(F)cc3F)nc2n1	101
C=C(C)c1cccc(C(C)(C)NC(=O)NC23CC4CC(CC(C4)C2)C3)c1	100
CCCC1c2ccsc2CCN1C(=S)Nc1ccc(Cl)cc1Cl (stereo not drawn)	90
O=C(CSCC(=O)c1ccc(-c2ccccc2)cc1)Nc1ccc2ccccc2c1	95
Cc1ccc(NC(=O)Cn2c(SCc3cccc(C(F)(F)F)c3)nc3cccnc32)cc1C	110

Further structures.
SMILES	Vaccinia pol inh
CN=C1S/C(=C\c2cn(CC(=O)O)c3ccccc23)C(=O)N1C	100
Clc1cccc(-n2c(SCC3CC3)nnc2C2CC2)c1	93
CCC1CCCCN1C(=O)Cn1c(=O)n(-c2cc(F)ccc2F)c(=O)c2sccc21 (stereo not drawn)	98
CN1C(=O)c2ccccc2C(C(=O)NC2CC2)C1c1cn(C)c2ccccc12 (stereo not drawn)	103
O=C1c2ccccc2C(=O)N1CCCN1CCN(c2nccc(C(F)(F)F)n2)CC1	103
c1ccc(CNc2cc(-c3ccccc3)nc3nncn23)cc1	76
O=C(CS(=O)(=O)c1cn(Cc2ccccc2Cl)c2ccccc12)N1CCCCC1	101
Cc1cc(Cl)ccc1OC(C)C(=O)N1CCN(c2ccccc2F)CC1 (stereo not drawn)	97
CC1=NCCc2c1[nH]c1cc(O)ccc21	86
O=C(Cn1nnc2ccccc21)Nc1ccccc1Cl	105
O=C(Cn1nc(-c2ccc(Cl)cc2)ccc1=O)NCc1ccco1	106
COc1ccc(-n2nnnc2-c2ccc3ccccc3n2)cc1	90
Cc1ccc(CN2C(=O)C(O)(c3c(C)[nH]c4ccccc34)c3cc(Br)ccc32)cc1 (stereo not drawn)	88
Cc1ccc(CNC(=O)c2cc(=O)[nH]c3ccc(Br)cc23)cc1	95
O=C(Oc1c(CN2CCOCC2)cc(Cl)c2cccnc12)c1ccc(Cl)cc1	97
CCC(Sc1nc(Nc2ccc(F)cc2)c2ccccc2n1)C(=O)Nc1ccc2c(c1)OCO2 (stereo not drawn)	87
O=C(O)CCNC(=O)c1ccc(NC(=O)Cc2ccc(Cl)cc2)cc1	100
CC(NC(=O)CC#N)c1ccccc1 (stereo not drawn)	102
Cc1cccc(-n2cnc3cc(C(=O)N4CCOCC4)ccc32)c1	99
O=C(CSc1cccc2cccnc12)NCc1ccccc1	100
O=C1SC(C2SC(=O)N(Cc3ccc(F)cc3)C2=O)C(=O)N1Cc1ccc(F)cc1 (stereo not drawn)	100
c1ccc2[nH]c(SCCSc3nc4ccccc4[nH]3)nc2c1	98
Cc1ccc(C)n1C(CC(=O)O)c1ccc(F)cc1 (stereo not drawn)	82
Cc1cc(C)cc(NS(=O)(=O)CC23CCC(CC2=O)C3(C)C)c1 (stereo not drawn)	90
Cc1nc(N)sc1-c1nnc(Nc2ccccc2)s1	101

A portion from further up, as a working copy:
SMILES	Vaccinia pol inh
CN=C1S/C(=C\c2cn(CC(=O)O)c3ccccc23)C(=O)N1C	100
Clc1cccc(-n2c(SCC3CC3)nnc2C2CC2)c1	93
CCC1CCCCN1C(=O)Cn1c(=O)n(-c2cc(F)ccc2F)c(=O)c2sccc21 (stereo not drawn)	98
CN1C(=O)c2ccccc2C(C(=O)NC2CC2)C1c1cn(C)c2ccccc12 (stereo not drawn)	103
O=C1c2ccccc2C(=O)N1CCCN1CCN(c2nccc(C(F)(F)F)n2)CC1	103
c1ccc(CNc2cc(-c3ccccc3)nc3nncn23)cc1	76
O=C(CS(=O)(=O)c1cn(Cc2ccccc2Cl)c2ccccc12)N1CCCCC1	101
Cc1cc(Cl)ccc1OC(C)C(=O)N1CCN(c2ccccc2F)CC1 (stereo not drawn)	97
CC1=NCCc2c1[nH]c1cc(O)ccc21	86
O=C(Cn1nnc2ccccc21)Nc1ccccc1Cl	105
O=C(Cn1nc(-c2ccc(Cl)cc2)ccc1=O)NCc1ccco1	106
COc1ccc(-n2nnnc2-c2ccc3ccccc3n2)cc1	90
Cc1ccc(CN2C(=O)C(O)(c3c(C)[nH]c4ccccc34)c3cc(Br)ccc32)cc1 (stereo not drawn)	88
Cc1ccc(CNC(=O)c2cc(=O)[nH]c3ccc(Br)cc23)cc1	95
O=C(Oc1c(CN2CCOCC2)cc(Cl)c2cccnc12)c1ccc(Cl)cc1	97
CCC(Sc1nc(Nc2ccc(F)cc2)c2ccccc2n1)C(=O)Nc1ccc2c(c1)OCO2 (stereo not drawn)	87
O=C(O)CCNC(=O)c1ccc(NC(=O)Cc2ccc(Cl)cc2)cc1	100
CC(NC(=O)CC#N)c1ccccc1 (stereo not drawn)	102
Cc1cccc(-n2cnc3cc(C(=O)N4CCOCC4)ccc32)c1	99
O=C(CSc1cccc2cccnc12)NCc1ccccc1	100
O=C1SC(C2SC(=O)N(Cc3ccc(F)cc3)C2=O)C(=O)N1Cc1ccc(F)cc1 (stereo not drawn)	100

More results
SMILES	Vaccinia pol inh
O=C(Nc1c(-c2ccccc2)nc2ccccn12)C1CCCCC1	99
O=C1CSC2=NCN(c3ccccc3)CN12	100
CC1(C)CC(NC(=O)C23CCC(C)(C(=O)C2)C3(C)C)CC(C)(C)N1 (stereo not drawn)	91
CCC(C)C1NC(=O)C(CCNCS(=O)(=O)O)NC(=O)C(NC(=O)C(CCNCS(=O)(=O)O)NC(=O)C(NC(=O)C(CCNCS(=O)(=O)O)NC(=O)CCCCC(C)C)C(C)O)CCNC(=O)C(C(C)O)NC(=O)C(CCNCS(=O)(=O)O)NC(=O)C(CCNCS(=O)(=O)O)NC(=O)C(C(C)CC)NC1=O (stereo not drawn)	99
Nc1ncnc2c1c(I)cn2C1OC(CO)C(O)C1O (stereo not drawn)	100
O=c1[nH]c2ccsc2c(=O)n1CCO	100
COc1ccc(CCNC(=O)CC#N)cc1OC	97
CCN1C(=O)/C(=C2\C=Cc3ccccc3N2CC)OC1=S	100
COc1ccc(C2N(c3ccccc3)OC(=O)N2c2ccccc2)cc1 (stereo not drawn)	93
COc1ccc(C2=NN(C(=O)CSCc3ccco3)C(c3cccc(OC)c3OC)C2)cc1 (stereo not drawn)	100
CN(Cc1ccccc1)C(=O)CN1C(=O)c2ccccc2S1(=O)=O	96
O=C(COC(=O)c1ccco1)NC1CC1	94
O=C(Cc1ccccc1)NC1CCCCC1NC(=O)Cc1ccccc1 (stereo not drawn)	100
N#CC1=C(N)Oc2c(c(=O)oc3ccccc23)C1C1CCCCC1 (stereo not drawn)	93
Cc1ccc(-c2cccc(-n3c(C)ccc3-c3cccc(N)c3)c2)o1	100
Cc1ccc(C2=NS(=O)(=O)N(C)C(C(=O)Nc3sc4c(c3C(N)=O)CCCC4)=C2)cc1	99
O=c1[nH]cnc2c1cnn2-c1ccccc1	100
CCc1nnc(NC(=O)COc2cc(C)c(Cl)c(C)c2)s1	100
CCC(C)(C)C1CCc2oc3ccc(NS(=O)(=O)c4cccs4)cc3c2C1 (stereo not drawn)	100
CC(C)N(Cc1ccc(N(C)C)cc1)C(=O)c1sc2ccccc2c1Cl	104
O=C(c1ccccc1)C12CC3CC(CC(C3)C1)C2	89
O=C(CSc1nnc(-c2ccccc2)n1-c1ccccc1)NC1CC1	100
O=C(NCc1ccccc1)c1ccc(C(=O)NCc2ccccc2)cc1	96
CSc1cccc(NC(=S)N(CCc2ccncc2)C(C)C)c1	95
COc1ccc2[nH]c(=O)c(CN(C(C)=O)c3cccc(C)c3)cc2c1	99

Next section
SMILES	Vaccinia pol inh
COc1ccc(/C=N/N2CCOCC2)cc1O	101
Nn1c(Cc2ccccc2)nc2sc3c(c2c1=O)CCCC3	100
CC1CN=C(Nc2ccc(C(C)C)cc2)S1 (stereo not drawn)	98
Nc1nc(-c2ccc(Cl)c(Cl)c2)cs1	102
CC1CCCCC1NC(=O)CCCn1ncn2c(cc3occc32)c1=O (stereo not drawn)	100
O=C1OC(c2ccccc2)OC(=O)C1=C/C=C/c1ccccc1 (stereo not drawn)	100
CCc1ccc(CN2CCC(N3CCCCC3)CC2)cc1	109
COc1cccc(NC(=O)CNC(=O)Cn2cnc3sc4c(c3c2=O)CCCC4)c1	92
Cc1nc2sc(C(c3ccc(F)cc3)N3CCN(C)CC3)c(O)n2n1 (stereo not drawn)	100
Cc1ccc(CN2C(=O)CCC2C(=O)NC(C)C)cc1 (stereo not drawn)	99
NCC(O)CC(=O)O (stereo not drawn)	85
O=C(COC(=O)C1CCC(=O)N1)Nc1ccc(Cl)cc1Cl (stereo not drawn)	96
Cc1nc2ccccc2c(=O)n1-c1ccc2c(c1)OC(F)(F)O2	100
O=C(CSC1CCCC1)N1CCCC1	103
c1ccc(Nc2nc3ccccc3[nH]2)nc1	101

Screens from PubChem BioAssay.
